# A1 inh: inhibitors of the anti-apoptotic protein A1, read as caspase activation; MEF A1-2A-BIM cells, Caspase-Glo 3/7 luminescence, 3 h; percent of clofoctol response, vehicle zero; 330,000 compounds, 0.066% hits; caspase activation, % (concentration not given with the values);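 active = over half of replicate activation scores above 10%, or exactly half above 10 with the replicate mean above 10; inconclusive = replicate mean below 10 yet half the replicates above 10; inactive = over half of replicates below 10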;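 also: wells of about 30 µL received 50 nL stock; many hits fall short of the cut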
# Beta apoptosis: blocks beta cell apoptosis. INS-1E cytokine-induced death, ATP luminescence, 48 h; percent of positive-control rescue, neutral wells zero. 300,000 compounds, 0.8% hits. AID 435005. protection from apoptosis, % (concentration not given with the values);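 active = all replicates at 75% or more, or half of them and the mean; inconclusive = half reach 75% but not the mean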;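 also: 0% = cytokine-treated negative control wells and 100% = positive control rescue; higher means more ATP so stronger rescue from cytokine killing; wells of about 40 µL received 100 nL stock; the first replicate is given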
# UCH37 DUB inh: blocks the human deubiquitinase UCH37. Q9Y5K5. purified proteasome/UCH37, Ub-AMC cleavage fluorescence. inhibition, % (no concentration beside the values). 330,000 compounds, 0.33% hits. AID 588478;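 active = mean of two replicates above 20%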;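 also: 0% = compound-free wells with enzyme and 100% = wells lacking proteasome; stock transfer was 100 nL into about 20 µL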
#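 Schedule: 30 min plus 25 min, room temperature / Material: human UCH37 within purified proteasomes / Technique: AMC fluorescence intensity at 355/460 nm / Buffer or medium: pH 7.4 Tris-HCl (50 mM) with ovalbumin, ATP-MgCl2, DTT / Controls: wells without proteasome as full block, compound-free enzyme plus substrate as uninhibited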
# B2AR ag: human beta-2 adrenergic receptor agonism by FAP; 340,000 compounds, 0.43% hits; P07550; Am2.2-beta2AR cells, FAP receptor internalization, flow cytometry; reference of the scale not given here; response, % (no concentration beside the values);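 active = response above a set limit, near 3 SD of response in nonfluorescent compounds, cut at about 42% in these data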;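 also: stock transfer was 100 nL into about 11 µL; a reference agonist was the positive control; negative values mostly stem from fluorescent compounds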
# Calb FLC: C. albicans growth modulation with fluconazole; C. albicans CaCi-2 (fluconazole-resistant clinical isolate) + fluconazole, Alamar Blue growth, 48 h; growth inhibition, % (no concentration beside the values); 300,000 compounds, 0.57% hits; AID 1979;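 active = most replicates above 75%; inconclusive = exactly half above 75%; inactive = most below 75%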;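 also: all wells also contain fluconazole at 8 µg/ml as a sub-toxic cotreatment; 0% = median of DMSO wells and 100% = median of geldanamycin control wells; wells of about 8 µL received 7.5 nL stock; the first replicate is given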
# RanGTP-Impb inh: inhibitors of RanGTP-importin-beta interaction, primary screen, biochemical, FRET, CFP-Ran, YFP-importin-beta, homogeneous; cell-free CFP-Ran/YFP-importin-beta FRET ratio; inhibition, % (no concentration beside the values); 300,000 compounds, 1.1% hits; AID 2216;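 active = most replicates above 15%; inconclusive = exactly half above 15%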;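 also: 0% = DMSO wells and 100% = Ran loaded with GDP instead of GTP; wells of about 40 µL received 100 nL stock; the first replicate is given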
# LANA-H2A inh: blocks KSHV LANA binding to histone H2A/H2B | cell-free LANA-H2A/H2B peptide, fluorescence polarization | inhibition, % (test concentration not listed) | 320,000 compounds, 0.6% hits | AID 2629; in the data active = inhibition mostly above about 10%, no sharp cut-off; inactive = mostly below about 6.7%;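 also: stock transfer was 7.5 nL into about 10 µL; 0% = median of vehicle wells and 100% = median of positive control wells; one replicate is shown; the record names a cut of 25% in any replicate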
# Target sequence (Q9QR71 whole entry, looked up): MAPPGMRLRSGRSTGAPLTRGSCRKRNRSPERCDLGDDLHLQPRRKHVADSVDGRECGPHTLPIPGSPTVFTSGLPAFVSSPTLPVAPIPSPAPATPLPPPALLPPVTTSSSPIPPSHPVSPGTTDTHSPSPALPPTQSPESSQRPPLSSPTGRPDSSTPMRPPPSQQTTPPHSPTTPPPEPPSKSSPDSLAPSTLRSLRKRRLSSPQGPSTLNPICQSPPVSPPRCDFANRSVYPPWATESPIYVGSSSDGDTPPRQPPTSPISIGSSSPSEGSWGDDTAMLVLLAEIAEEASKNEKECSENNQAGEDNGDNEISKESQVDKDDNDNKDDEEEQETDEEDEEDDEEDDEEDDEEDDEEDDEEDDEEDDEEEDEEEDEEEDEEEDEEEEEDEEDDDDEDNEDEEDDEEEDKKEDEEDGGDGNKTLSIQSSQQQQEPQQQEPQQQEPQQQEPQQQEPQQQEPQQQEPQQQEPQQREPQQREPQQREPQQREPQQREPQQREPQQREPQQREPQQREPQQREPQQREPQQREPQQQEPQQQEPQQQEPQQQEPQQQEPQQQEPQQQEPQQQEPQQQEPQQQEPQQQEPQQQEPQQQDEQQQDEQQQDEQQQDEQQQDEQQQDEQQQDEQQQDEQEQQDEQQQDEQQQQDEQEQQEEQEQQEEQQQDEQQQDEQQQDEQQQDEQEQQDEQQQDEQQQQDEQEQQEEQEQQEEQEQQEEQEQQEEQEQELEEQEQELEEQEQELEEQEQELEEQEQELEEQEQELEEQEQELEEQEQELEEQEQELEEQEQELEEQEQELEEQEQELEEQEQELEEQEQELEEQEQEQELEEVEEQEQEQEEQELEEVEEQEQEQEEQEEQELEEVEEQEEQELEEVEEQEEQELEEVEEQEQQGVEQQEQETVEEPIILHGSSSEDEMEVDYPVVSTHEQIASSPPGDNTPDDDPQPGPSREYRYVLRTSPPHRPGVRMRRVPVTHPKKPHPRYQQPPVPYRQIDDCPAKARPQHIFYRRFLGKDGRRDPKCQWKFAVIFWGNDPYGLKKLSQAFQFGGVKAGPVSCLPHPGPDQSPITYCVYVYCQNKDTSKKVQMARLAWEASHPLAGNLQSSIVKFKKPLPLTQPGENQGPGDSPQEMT
# T cruzi repl: T. cruzi replication inhibition; T. cruzi beta-gal in NIH3T3, luminescence, 90 h; inhibition, % (no concentration beside the values); 300,000 compounds, 1.4% hits;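 active = mean inhibition across valid replicates above about 55%, limit read from the data; inconclusive = mean below that limit but half or more replicates reach it; inactive = mean below it, under half of replicates reach it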;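 also: signal also drops with host cell toxicity which is not excluded here; 0% = plate median of DMSO wells and 100% = zero luminescence signal; higher percent means less beta-gal luminescence so fewer parasites; stock transfer was 50 nL into about 50 µL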
# Active calls of the source: *; i = inactive; ? = inconclusive; / = no result given; + = active, no number.
SMILES,A1 inh,Beta apoptosis,UCH37 DUB inh,B2AR ag,Calb FLC,RanGTP-Impb inh,LANA-H2A inh,T cruzi repl
C/C(=N/N1CCN(c2ccccc2)CC1)c1cccc([N+](=O)[O-])c1,1.1,0,/,-7,0,-0.2,1.8,5
CC1=C(C#N)C(c2ccc3ncccc3c2)C(C#N)=C(C)N1,-0.5,0,3.7,-6,28,-3.8,0.3,-4
Cc1cc(C)c(NC(=O)CSc2nc3ncc(Cl)cc3[nH]2)c(C)c1,-0.2,-1,1.9,5,2,-2.3,6.7,-7
O=C(CSc1n[nH]c(=O)[nH]c1=O)Nc1ccccc1C(=O)c1ccccc1,0.0,-3,0.5,7,-2,-0.1,-11,0
NC(=O)Nc1ccc(C(=O)OCC(=O)N(Cc2ccccc2)C2CCS(=O)(=O)C2)cc1 (stereo not given),?,-4,2.4,-3,-3,?,-3.9,-9
COc1ccc2cc(C(=O)C3CCCN(C(=O)CCc4ccccn4)C3)ccc2c1 (stereo not given),-0.6,2,i,-7,14,-2.4,1.1,34
CC(C)Nc1nnc(Sc2ccc(Cl)cc2[N+](=O)[O-])s1,0.5,2,9.5,-5,6,2.5,3.4,1
CC(=O)Nc1ccc(SCc2csc(C)n2)cc1,-0.8,-3,0.3,0,-29,1.0,0.3,7
COc1ccc(-c2cc(C(F)(F)F)nc(SCC(=O)Nc3ccc4c(c3)OCO4)n2)cc1OC,1.1,7,-25,-13,11,-0.7,/,16
CCCCN(CC)S(=O)(=O)c1ccc2c(c1)n(C)c(=O)c(=O)n2C,0.3,-6,-8.0,-1,-3,5.9,0.7,1
CC(=O)c1ccc(-n2c(CCC(=O)O)ccc2-c2ccc(Cl)cc2)cc1,-0.5,1,0.9,7,24,1.0,5.6,-10
CSc1ccccc1OCc1cc(C(=O)N(C)CCn2nc(C)cc2C)no1,1.5,/,0.0,-8,-1,5.7,1.2,10
Cc1ccccc1C(=O)NC(=S)Nc1ccc2[nH]c(=O)[nH]c2c1,0.2,1,4.9,0,0,0.9,-5.9,-7
CC(=O)C1=C(O)C(=O)N(c2ccc(Br)cn2)C1c1ccc(Br)cc1 (stereo not given),0.0,-11,-8.4,1,2,2.7,5.2,-16
CCOC(=O)C1=C(N)n2c(s/c(=C\c3cccs3)c2=O)=C(C(=O)OCC)C1c1cccs1 (stereo not given),0.2,12,/,8,8,-1.2,-5.7,-1
C1CCc2nnc(-c3nnc4n3CCCCC4)n2CC1,0.3,-1,-1.0,4,-31,-1.1,-4.2,2
CCCCCn1c(N2CCCC2)nc2c1c(=O)n(C)c(=O)n2C,0.9,10,2.5,-6,-1,1.5,-2.3,33
O=C(NCCCN1CCOCC1)c1cc2c([nH]c3ccccc32)c(-c2cccc(Br)c2)n1,0.3,34,-13,-9,50,-2.0,0.8,46
C=CCn1cnc2sc(C(=O)Nc3ccccc3OC)c(C)c2c1=O,0.3,1,-13,-8,1,4.5,8.5,-3
C/C(=N/Nc1ncc(Br)cn1)c1ccc(Br)cc1,0.1,0,/,-20,-61,2.5,3.0,10
CCCCC(c1nnnn1CCOC)N1CCN(C)CC1 (stereo not given),1.0,1,2.4,1,-6,2.6,-5.8,6
Cc1[nH]c2ccccc2c1-c1nc2ccccc2[nH]1,-0.8,10,-1.6,1,-4,-4.7,4.6,-19
CC(=O)c1ccc(NC(=O)Cn2nc(C)cc2C)cc1,-1.1,-11,1.3,-9,-5,-3.4,-1.2,2
CCOC(=O)Cn1c(-c2ccccc2)nc2ccccc2c1=O,-0.1,-5,-0.1,1,3,0.7,-4.3,3
Cc1c(C#N)c(N)nc2c3c(sc12)NC(=O)CC3c1ccc(F)cc1 (stereo not given),0.4,-8,-17,1,-2,3.1,0.7,-5

# Four entries already listed, ordered by their value in B2AR ag, highest first.
mol,UCH37 DUB inh,B2AR ag,RanGTP-Impb inh,LANA-H2A inh
CC(C)Nc1nnc(Sc2ccc(Cl)cc2[N+](=O)[O-])s1,9.5,-5,2.5,3.4
CCCCCn1c(N2CCCC2)nc2c1c(=O)n(C)c(=O)n2C,2.5,-6,1.5,-2.3
O=C(NCCCN1CCOCC1)c1cc2c([nH]c3ccccc32)c(-c2cccc(Br)c2)n1,-13,-9,-2.0,0.8
C/C(=N/Nc1ncc(Br)cn1)c1ccc(Br)cc1,/,-20,2.5,3.0

# Additional results:
SMILES,A1 inh,Beta apoptosis,UCH37 DUB inh,B2AR ag,Calb FLC,RanGTP-Impb inh,LANA-H2A inh,T cruzi repl
O=[N+]([O-])c1ccc(N2CCN(C(=S)Nc3ccccc3)CC2)cc1,2.2,0,/,-3,-5,1.6,2.0,-60
COc1ccc2c(c1)c(CC(=O)Nc1ccccc1OC)c(C)n2C(=O)c1ccc(Cl)cc1,0.0,4,6.5,0,-16,1.6,-0.8,48
CCC1C(=O)N=C(SCC(=O)Nc2cccc3ccccc23)NC1=O (stereo not given),0.5,/,12,-3,-1,2.0,-5.3,-10
CCOC(=O)c1coc(CNC(=O)c2c(C)oc3c2CCCC3)c1,0.4,-5,-0.7,-5,?,-1.6,0.9,-8
CS(=O)(=O)N(Cc1ccccc1)c1ccc(C(=O)N2CCN(c3cccc(Cl)c3)CC2)cc1,0.8,9,-4.1,12,12,0.9,0.5,/
O=C(CSc1nc(-c2ccccc2)c(-c2ccccc2)[nH]1)NCc1ccco1,0.1,-5,0.8,0,13,4.7,-2.0,5
COc1ccc(S(=O)(=O)N2CCCCC2)cc1NC(=O)c1ccc(N2CCCC2=O)cc1,0.6,5,7.8,2,/,/,0.9,/
O=C(Nc1ccc(Nc2ccccc2)cc1)c1ccc(Cl)cc1Cl,0.2,/,8.0,10,-5,-5.0,5.5,14
COc1cccc(-n2nnc3c(=O)n(CC(=O)Nc4ccccc4C)cnc32)c1,-0.1,1,6.9,4,0,6.1,-4.0,-27
Cc1ccc(-c2onc3ccc(C4(C)OCCO4)cc23)cc1,-0.1,-8,-0.5,4,3,6.8,1.7,-10
CCC(=O)NC(c1ccco1)c1cc(Cl)c2ccccc2c1O (stereo not given),-1.4,-5,-2.2,4,/,/,-0.7,/
Brc1ccc(NCc2cccc3ccccc23)nc1,0.3,-13,-0.5,2,-14,-2.7,0.6,-2
O=C(c1ccccc1Cl)N1CCN(c2ncccn2)CC1,-0.4,/,-0.1,-13,-26,-0.3,3.9,-5
O=C(Cc1ccc(Cl)cc1)NCCc1cnc[nH]1,0.7,-13,1.8,-3,-11,-0.1,-1.2,36
O=C(c1ccco1)N1CCN(CC(O)COc2ccc3oc4ccccc4c3c2)CC1 (stereo not given),-0.7,0,1.7,-5,0,3.6,2.2,7
O=C(c1cc2c(s1)CCC2)N1C(=O)c2ccccc2S1(=O)=O,0.7,-5,2.6,3,0,1.2,-6.1,-9
NS(=O)(=O)c1cccc(NC(=O)CC(NC(=O)c2ccccc2Cl)c2ccccc2)c1 (stereo not given),-0.4,11,1.8,-5,-6,4.6,-1.5,-6
C/C(=N\NC(=O)c1ccc(O)cc1)c1cc2ccccc2o1,0.2,5,/,2,-10,4.6,3.2,4
COCCNC(=O)c1ccccc1NS(=O)(=O)c1ccc(Br)s1,-0.4,3,4.8,9,63,6.7,-4.6,6
O=c1c2ccccc2nc(/C=C/c2ccc([N+](=O)[O-])cc2)n1CCCO,0.3,-1,-4.3,-2,16,0.0,1.4,9
C=C(C)C1Cc2cc3ccc(=O)oc3cc2O1 (stereo not given),0.1,1,i,1,-5,-0.5,3.9,-18
CCCC(=O)N1CCCC(C(=O)c2cccc(OC(C)C)c2)C1 (stereo not given),-0.3,-3,/,-10,-8,-0.6,0.6,-5
COc1ccc(CCNC(=O)CNS(=O)(=O)c2ccc(Br)s2)cc1OC,0.4,3,3.0,-6,-15,-4.3,-0.7,-5
COc1ccc(CN2CCN(Cc3ccc4ccccc4c3)CC2)cc1OC,0.2,1,0.6,7,0,-0.5,2.8,37
CCN1C(C#N)=C(C#N)N=C(C)CC1(C)C,0.9,4,5.4,2,-32,3.4,-1.6,-4
# Other results.
SMILES,A1 inh,Beta apoptosis,UCH37 DUB inh,B2AR ag,Calb FLC,RanGTP-Impb inh,LANA-H2A inh,T cruzi repl
O=c1[nH]c2sc3c(c2c(=O)n1Cc1ccccc1)CCC3,0.8,-2,1.8,-12,2,3.3,0.3,-6
O=C(Cc1ccc(F)cc1)Nc1cccc(-c2cn3c(n2)SCC3)c1,-0.2,3,4.0,3,7,-1.0,+,-8
CCCCc1ccc(S(=O)(=O)Nc2nnc(C)s2)cc1,-0.2,4,-4.8,-3,33,5.4,-0.2,-7
O=C(O)CCNc1nc(-c2ccccc2)nc2ccccc12,1.7,0,7.5,-4,-7,7.0,-1.6,-1
Cc1ccc(C)c(CSc2ncccc2C(=O)O)c1,0.2,/,2.8,3,2,0.3,-1.7,-20
S=C(Nc1cc(Cl)cc(Cl)c1)N1CCN(c2ccccn2)CC1,-1.2,-17,6.1,12,-4,/,-5.0,/
Cc1nn(C(C)C(=O)NCCC2=CCCCC2)c(=O)c2nn(-c3ccccc3)c(C)c12 (stereo not given),1.4,-2,1.9,-2,-10,-0.5,3.1,16
CC(C)c1ccc(NC(=O)c2cc(S(=O)(=O)N3CCCCC3)c[nH]2)cc1,0.2,-3,6.7,4,6,-1.1,-2.2,-1
Cc1ccc(C(C(=O)NC2CCCCC2)N2CCC3(CC2)OCCO3)cc1 (stereo not given),1.0,-2,1.7,0,33,0.2,2.4,-3
O=C(c1ccc(Cl)cc1)c1cnc2ccccn12,-7.8,3,3.9,-11,0,0.4,0.9,-8
O=C(c1ccccc1)N1CCN(CCc2ccccn2)CC1,-0.2,/,2.7,6,-1,0.7,1.2,-9
CC(SC1=NCCS1)C(=O)Nc1nnc(-c2ccc(Cl)cc2)s1 (stereo not given),-2.4,-4,5.8,27,-6,9.1,3.7,-1
O=C(COC(=O)CNC(=O)c1ccccc1F)Nc1ccc(Cl)cn1,0.7,-4,-2.2,-1,/,/,2.1,/
Cc1ccccc1NC(=O)N(C(C)C)C(C)C,0.3,-1,0.1,-1,-5,0.2,2.2,-3
CCOC(=O)C1=C(C)N(Cc2ccccc2)C(=O)NC1c1ccccc1OS(=O)(=O)c1ccccc1[N+](=O)[O-] (stereo not given),1.5,-2,7.3,11,6,-3.3,-0.4,17
Cc1ccc(S(=O)(=O)N2CCC(C(=O)NCC3CCCO3)CC2)cc1 (stereo not given),0.1,3,0.5,2,4,-0.4,1.1,-6

# One compound at a time (already shown).
# Shown for Cc1ccc(S(=O)(=O)N2CCC(C(=O)NCC3CCCO3)CC2)cc1 (stereo not given) = A1 inh: 0.1; Beta apoptosis: 3; UCH37 DUB inh: 0.5; B2AR ag: 2; Calb FLC: 4; RanGTP-Impb inh: -0.4; LANA-H2A inh: 1.1; T cruzi repl: -6
# Shown for O=c1[nH]c2sc3c(c2c(=O)n1Cc1ccccc1)CCC3 = A1 inh: 0.8; Beta apoptosis: -2; UCH37 DUB inh: 1.8; B2AR ag: -12; Calb FLC: 2; RanGTP-Impb inh: 3.3; LANA-H2A inh: 0.3; T cruzi repl: -6
# Shown for O=C(COC(=O)CNC(=O)c1ccccc1F)Nc1ccc(Cl)cn1 = A1 inh: 0.7; Beta apoptosis: -4; UCH37 DUB inh: -2.2; B2AR ag: -1; Calb FLC: /; RanGTP-Impb inh: /; LANA-H2A inh: 2.1; T cruzi repl: /
